SARS PLP yeast = SARS-CoV PLP inhibition in yeast. 330,000 tested, 0.19% active. Potency, µM (highest dose often 32.9 µM), for the others: at the highest dose activity, positive = growth rescue. S. cerevisiae expressing SARS-CoV PLpro, growth rescue; control for the full effect not named in the record; note: 0% is about no effect; nearly all actives have a fitted effect of over 55% in size; growth read by luminescence after 48 h
Marburg entry inh = inhibitors of Marburg virus binding or cell entry | AID 540276 | 300,000 tested, 1.8% active | Potency, µM (doses to about 37.8 µM), for the others: at the highest dose activity change, negative = inhibition, most hits filed as inhibitors | Marburg virus pseudotyped entry inhibition, cell reporter; control for the full effect not named in the record; about a third of the inactives were read at about 46 µM; active = well fitted inhibition curve with a large enough effect; inconclusive = small, poorly fitted or top-dose-only effect, or effect the other way; inactive = flat fitted curve, though single readings scatter; tested in HEK293 cells; about a fifth of its hits are not listed in these tables; note: % is set by controls: 0 for no effect and ±100 for the full control effect; luciferase read-out
RE007 growth inh = less growth of the S. pombe RE007 Vpr strain | Potency, µM (highest dose often 92.2 µM), for the others: top-dose activity change, negative = less growth | 360,000 tested, 0.21% active | S. pombe RE007 Vpr strain, BacTiter-Glo ATP luminescence, 24 h; control for the full effect not named in the record; active = well fitted falling curve with a large enough effect; inconclusive = small, poorly fitted or top-dose-only effect; inactive = no such curve, though single readings can be large or run the other way;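 note: % is set by controls: 0 for no effect and ±100 for the full control effect; nearly all actives have a fitted effect of over 50% in size; the assay follows cell death caused by Vpr and the record does not say whether a fall means rescue or toxicity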
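Fission yeast RE007 carrying one integrated HIV-1 vpr copy, seeded at OD 0.01 in PMG+AL medium with 23 nL pinned compound. Grown 24 h at 30 degrees; viability read by BacTiter-Glo luminescence after 5 min.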
Lassa entry inh = Lassa virus entry inhibition. Lassa virus pseudotype entry inhibition, cell reporter; control for the full effect not named in the record. Potency, µM (top dose mostly 37.9 µM), for the others: top-dose activity change, negative = inhibition, hits mostly inhibitors. 300,000 tested, 1.2% active. AID 540256; active means well fitted inhibition curve with a large enough effect; inconclusive means small, poorly fitted or top-dose-only effect, or effect the other way; inactive means flat fitted curve, though single readings scatter; tested in HEK293 cells; note: % is set by controls: 0 for no effect and ±100 for the full control effect; nearly all actives have a fitted effect of over 50% in size; luciferase read-out
Cruzain noTriton = inhibitors of Trypanosoma cruzi cruzain without detergent | P25779 | purified cruzain, Z-FR-AMC fluorescence, no detergent | Potency, µM, for inactives: max response, negative = inhibition, usual class: inhibitors | 200,000 tested, 2.3% active | AID 1476; active = well fitted curve in the direction sought with a large enough effect; inconclusive = small, poorly fitted or top-dose-only effect, or another doubt; inactive = no such curve, though single readings can be large; an effect the other way counts as inactive or inconclusive;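 note: plate controls were enzyme without inhibitor for no effect and buffer without enzyme for full effect; nearly all actives have a fitted effect of over 40% in size; top concentration of the series not given in the record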
Target sequence (P25779 123-467 limits assumed): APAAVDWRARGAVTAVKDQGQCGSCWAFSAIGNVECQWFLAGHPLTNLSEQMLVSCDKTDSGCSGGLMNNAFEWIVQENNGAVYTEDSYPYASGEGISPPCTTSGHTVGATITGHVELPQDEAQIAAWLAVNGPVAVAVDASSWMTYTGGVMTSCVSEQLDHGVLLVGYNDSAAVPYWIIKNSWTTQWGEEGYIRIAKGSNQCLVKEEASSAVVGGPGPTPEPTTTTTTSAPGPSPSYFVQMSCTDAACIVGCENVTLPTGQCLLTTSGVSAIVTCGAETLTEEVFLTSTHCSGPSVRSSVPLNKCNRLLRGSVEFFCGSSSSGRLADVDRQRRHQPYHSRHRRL
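Detergent-free condition (0.00005% Triton X-100) in acetate buffer pH 5.5 with DTT. 1.5 nM enzyme and compound were pre-mixed 15 min, then 2 uM Z-FR-AMC substrate added; reaction progress from fluorescence change between first and third reads (60 s).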
NS1 function inh = inhibitors of influenza NS1 protein function | S. cerevisiae slowed by influenza A NS1, growth recovery by OD600 | Potency, µM (top dose mostly 46.1 µM), for the others: at the top dose activity, positive = more growth | 270,000 tested, 0.4% active; note: actives are rising curves; nearly all actives have a fitted effect of over 50% in size
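Growth recovery, yeast-based: influenza A NS1 expressed in S. cerevisiae causes slow growth, and suppressors are detected by OD600. The parent strain without NS1 is used as positive control.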
StopGo reporter = FMDV 2A StopGo reporter, luciferase signal; human cells with a luciferase reporter of 2A StopGo recoding; control for the full effect not named in the record; Potency, µM (doses to about 57.9 µM), for inactives: at the highest dose signal change, negative = less light; 410,000 tested, 1.2% active; AID 1159524; active = well fitted falling curve with a large enough effect; inconclusive = small, poorly fitted or top-dose-only effect; inactive = no such curve, though single readings can be large or run the other way; tested in HEK293T cells; note: % is set by controls: 0 for no effect and ±100 for the full control effect; nearly all actives have a fitted effect of over 45% in size; luciferase light after 4 h
Cruzain inh Det = blocks cruzain activity in presence of Triton detergent | purified cruzain, Z-FR-AMC fluorescence, 0.01% Triton | Potency, µM, for the others: max response, negative = inhibition, actives largely listed as inhibitors | 200,000 tested, 0.43% active; active = well fitted curve in the direction sought with a large enough effect; inconclusive = small, poorly fitted or top-dose-only effect, or another doubt; inactive = no such curve, though single readings can be large; an effect the other way counts as inactive or inconclusive;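 note: plate controls were neutral wells for no effect and buffer without enzyme for full effect; nearly all actives have a fitted effect of over 40% in size; top concentration of the series not given in the record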
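In this qHTS format, compounds are incubated with 1.5 nM cruzain for 15 min at room temperature before 2 uM Z-FR-AMC is added. Release of AMC is followed at 360/450 nm, and progress is taken as the 60 s fluorescence difference.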
An asterisk follows results filed as active; ? = inconclusive; . = not tested or not shown; [ ] = remark or other dose. Unless noted, calls come from the whole dose curve; as a rule, active means well fitted rising curve with a large enough effect; inconclusive means small, poorly fitted or top-dose-only effect; inactive means no such curve, though single readings can be large or run the other way. Potency is the fitted concentration of half-maximal effect.

Value order: SARS PLP yeast	Marburg entry inh	RE007 growth inh	Lassa entry inh	Cruzain noTriton	NS1 function inh	StopGo reporter	Cruzain inh Det
> Cc1nn(-c2ccccc2)c2nc(N)c(C(N)=O)cc12
    2%	?	-2%	?	.	2%	41%[activator]	.
> Cc1cc(=O)n2[nH]c(SCc3ccccc3Cl)nc2n1
    -2%	5%[46.1 µM]	12%	12%[46.1 µM]	.	-1%	8%	.
> CCc1nn(CC(=O)NC(C)c2ccccc2)c(=O)c2cc3sccc3n12 (stereo not drawn)
    .	-21%[46.1 µM]	.	.	0%	.	-7%	-0.4%
> CC(=O)NC1=NN(C(C)=O)C(C)(c2ccc3ccccc3c2)S1 (stereo not drawn)
    ?	-27%	-1%	-13%	-1%	9%	-9%	0.1%
> Cn1cccc1C(=O)N/N=C/c1c(Cl)cccc1Cl
    -4%	-34%	-9%	?	.	-7%	51%[activator]	.
> CCCc1cc2c(=O)c(-c3cscn3)c(C(=O)OCC)oc2cc1O
    3%	4%	1%	8%	.	.	10%	.
> CN(C)S(=O)(=O)c1ccc(C(=O)Nc2ccccn2)cc1
    -5%	-9%	3%	10%	-4%	0%	.	1.8%
> O=C(NCC1CCCO1)C(=O)NCC(c1ccco1)N1CCN(c2ccccc2F)CC1 (stereo not drawn)
    16%	-3%	-1%	-10%	1%	2%	-11%	3.1%
> Cc1ccc(-n2c(/C=C/c3c(C)n(C)c4ccccc34)nc3ccccc3c2=O)cc1
    .	.	.	13%[46.1 µM]	-2%	.	-3%	-1.4%
> Cc1cc(C)c(CNC(=O)c2cc(C3CC3)nc3c2cnn3C(C)C)c(=O)[nH]1
    7%	-7%	4%	-4%	.	.	-10%	.
> O=C(Nc1nccs1)c1cncc(Br)c1
    1%	19%	14%	30%	.	.	43%[activator]	.
> O=C(NCCc1ccccc1)C(=O)NCC1OCCN1S(=O)(=O)c1ccc(Cl)cc1 (stereo not drawn)
    1%	-8%[46.1 µM]	-4%	-3%	.	-5%	?	.
> CCC(=O)NC1(C(F)(F)F)C(=O)Nc2c1c(=O)[nH]c(=O)n2CC(C)C (stereo not drawn)
    1%	8%	6%	.	.	3%	-7%	.
> Cc1ccc(C)c(NC(=O)CN(C)C(=O)c2ccc3ncsc3c2)c1
    1%	?	-1%	2%	.	.	-6%	.
> CCCCn1c(N)c(N(CC(C)C)C(=O)c2ccc(Br)o2)c(=O)[nH]c1=O
    0%	18%[46.1 µM]	13%	-4%	.	.	-20%	.

Of the compounds above, two have bromine.
Value order: SARS PLP yeast	Marburg entry inh	RE007 growth inh	Lassa entry inh	Cruzain noTriton	NS1 function inh	StopGo reporter	Cruzain inh Det
> O=C(Nc1nccs1)c1cncc(Br)c1
    1%	19%	14%	30%	.	.	43%[activator]	.
> CCCCn1c(N)c(N(CC(C)C)C(=O)c2ccc(Br)o2)c(=O)[nH]c1=O
    0%	18%[46.1 µM]	13%	-4%	.	.	-20%	.

Single entries from the entries so far.
Reading of O=C(NCC1CCCO1)C(=O)NCC(c1ccco1)N1CCN(c2ccccc2F)CC1 (stereo not drawn) in Cruzain noTriton: 1%
Reading of CC(=O)NC1=NN(C(C)=O)C(C)(c2ccc3ccccc3c2)S1 (stereo not drawn) in RE007 growth inh: -1%
Reading of CCC(=O)NC1(C(F)(F)F)C(=O)Nc2c1c(=O)[nH]c(=O)n2CC(C)C (stereo not drawn) in NS1 function inh: 3%
Reading of Cn1cccc1C(=O)N/N=C/c1c(Cl)cccc1Cl in SARS PLP yeast: -4%

Next part:
Value order: SARS PLP yeast	Marburg entry inh	RE007 growth inh	Lassa entry inh	Cruzain noTriton	NS1 function inh	StopGo reporter	Cruzain inh Det
> CCCCN(CC)C(=O)Cn1cnc2sc(C)c(S(=O)(=O)N3CCC(C)CC3)c2c1=O
    4%	-17%[46.1 µM]	2%	-3%	.	14%	11%	.
> COc1ccc(CCN=C(N)NS(=O)(=O)c2ccc(OC)cc2)cc1
    12%	2%	-28%	-23%	-1%	3%	-20%	-0.2%
> Nc1ccc2c(c1)C(=O)N(CC1CCCO1)C2=O (stereo not drawn)
    -4%	?	-3%	7%	-12%	1%	14%	1.4%
> CC1CCCCN1C(=O)c1cc2ccccc2cc1O (stereo not drawn)
    17%	.	-3%	.	.	-5%	12%	.
> Cc1ccc(S(=O)(=O)c2nc(-c3cccs3)oc2SC(C)c2ccccc2)cc1 (stereo not drawn)
    .	-17%[46.1 µM]	.	-3%[46.1 µM]	2%	.	13%	-3.6%
> Cc1c(NC(=O)CN(C)CC(=O)Nc2ccc(F)c(F)c2F)c(=O)n(-c2ccccc2)n1C
    8%	-4%	-9%	12%[46.1 µM]	.	.	-3%	.
> Cc1cccc(C(=O)NCC(=O)OCC(=O)NCCNC(=O)COC(=O)CNC(=O)c2cccc(C)c2)c1
    -1%	4%	-10%	9%	.	.	-1%	.
> COc1cc(NC(=O)Cc2ccccc2)nc(OC)n1
    1%	.	-6%	.	.	1%	8%	.
> COc1ccccc1NC(=O)C1=C(C)Nc2ncnn2C1c1ccccc1C(=O)O (stereo not drawn)
    .	?	.	16%[46.1 µM]	7%	.	-22%	-1.1%
> CC1CCCN(c2ccc(C(=O)NCc3ccco3)cc2[N+](=O)[O-])C1 (stereo not drawn)
    -42%	-4%	21%	?	-1%	-40%	31%[activator]	-7.2%
> CCOC(=O)c1c(NC(=O)CN2CCCCC2)sc2c1CCC(C=O)=C2Cl
    3%	16%	-20%	-13%	-21%	6%	?	6.2%
> CCCN=C(C)c1c(-c2ccccc2)[nH]n(-c2nc3ccccc3s2)c1=O
    -12%	-12%	4%	-18%	4%	1%	?	-7.0%
> CCC1CCCCN1C(=S)Nc1ccc(S(=O)(=O)Nc2ncccn2)cc1 (stereo not drawn)
    -2%	-2%	27%	?	.	-17%	-8%	.
> Cc1ccc(-c2nc3sc(CCNC(=O)c4ccc(C)c(C)c4)c(C)n3n2)cc1
    .	.	.	22%[46.1 µM]	-12%	.	-3%	1.0%
> COCCn1c(C)cc(C(=O)CSc2cc(C)c3ccc(OC)cc3n2)c1C
    -6%	?	19%	?	?	20%	-5%	7.1%
> CCOC(=O)N1CCC(NC(=O)c2sc3nc4n(c(=O)c3c2C)CCCC4)CC1
    -3%	7%	12%	7%	3%	-5%	-16%	7.0%
> CCOc1ccc2nc(NC(=O)CN3CCN(c4ccccn4)CC3)sc2c1
    .	?	-7%	-13%	0%	0%	?	-0.8%
> CCOC(=O)c1cnc2c(ccc3ccccc32)c1Nc1ccccc1OCC
    .	.	.	-2%[46.1 µM]	2%	.	20%	1.4%
> CNC(=O)/C(C#N)=C/c1ccc(-c2ccc(OC)cc2[N+](=O)[O-])o1
    1%	9%	-2%	4%	0%	12%	69%[activator]	2.5%
> O=C1CC2CS(=O)(=O)CC2N1C1CCCCC1 (stereo not drawn)
    -1%	.	10%	.	-5%	8%	-19%	7.1%
> COc1cc(C2C(C(=O)c3ccco3)=C(O)C(=O)N2Cc2ccccc2)ccc1O (stereo not drawn)
    -3%	6%[46.1 µM]	4%	.	.	?	53%[activator]	.
> CCOC(=O)C1CCCN(C(=O)COc2ccc(S(=O)(=O)N3CCOCC3)cc2)C1 (stereo not drawn)
    -5%	?	4%	?	.	.	0%	.
> CCCNC(=O)c1ccc(-n2c(-c3ccccc3)cc3c2CCC(C)C3)cc1 (stereo not drawn)
    .	.	.	?	17%	.	?	-3.4%
> Cc1ccc(S(=O)(=O)NC(C)CCc2ccccc2)cc1C(N)=O (stereo not drawn)
    7%	.	4%	.	.	11%	-24%	.
> O=C(CCS(=O)(=O)Cc1ccccc1)NCC1CCCO1 (stereo not drawn)
    3%	-14%	-2%	?	-12%	2%	-1%	4.0%
> COc1ccc(NC(=O)C(Cc2ccccc2)NS(=O)(=O)c2ccc3c(c2)CCC(=O)N3)c(OC)c1 (stereo not drawn)
    .	-1%[46.1 µM]	.	?	-6%	.	-9%	-0.5%
> COc1ccc(NC(=O)CSc2nc(-c3ccco3)cc(C(F)(F)F)n2)cc1
    .	?	.	?	-6%	.	-2%	-1.6%
> CCOC(=O)c1nn(-c2ccc(Br)cc2)cc1C(=O)c1cccc2ccccc12
    5%	5.8µM*	-1%	?	?	10%	43%[activator]	-1.4%
> Cc1cc(NC(=O)CSc2nc(C)c(C)c(=O)[nH]2)no1
    -2%	4%	4%	6%	.	.	4%	.
> COCC(=O)Oc1c(Sc2ccc(C)cc2)c(C)nn1C(C)(C)C
    .	-15%[46.1 µM]	.	?	-5%	.	0%	-2.9%
> CCN1C(=O)CS/C1=N\S(=O)(=O)c1ccccc1
    0%	3%[46.1 µM]	-4%	-10%	.	?	14%	.
> CCOC(=O)c1cc2cc([N+](=O)[O-])ccc2oc1=O
    -3%	4%[46.1 µM]	7%	15%	.	-11%	0%	.
> CCOC(=O)c1ccc(OCC2NCCc3cc(OC)c(OC)cc32)cc1 (stereo not drawn)
    2%	.	-1%	.	.	?	-25%	.
> CCOC(=O)C1(C(=O)OCC)COC(=O)C2(CC)OC21 (stereo not drawn)
    .	19%	-5%	1%	.	.	-26%	.
> Cc1oc2ccc(O)c(CN3CCCCCC3)c2c1C(=O)Nc1cccc(C(F)(F)F)c1
    .	?	.	?	?	.	-29%	-6.7%
> CCCCCCc1c(O)c2ccccc2[nH]c1=O
    -1%	-7%	-21%	-4%	-11%	-2%	64%[activator]	-1.5%
> O=C(NNc1ncc(C(F)(F)F)cc1Cl)c1ccc(Cl)c(Cl)c1
    -1%	21%[46.1 µM]	31%	-5%[46.1 µM]	.	0%	-11%	.
> CCCCn1c(-c2ccccc2C)nc2cc3[nH]c(=O)c(C(C)C)nc3cc21
    2%	.	8%	.	.	0%	-28%	.
